2A Renilla: FMDV 2A StopGo reporter, Renilla signal; HEK cells with a luciferase reporter of 2A StopGo recoding; Potency, µM (top dose mostly 57.5 µM), inactives show at the top dose signal change, negative = less light; 120,000 tested, 0.32% active; active means well fitted falling curve with a large enough effect; inconclusive means small, poorly fitted or top-dose-only effect; inactive means no such curve, though single readings can be large or run the other way; further: nearly all actives have a fitted effect of over 55% in size; overnight with compound
StopGo FLuc: FMDV 2A StopGo reporter, firefly signal; HEK cells with a luciferase reporter of 2A StopGo recoding; 120,000 tested, 0.23% active; Potency, µM (titrated, usually from 57.5 µM), for inactives: top-dose signal change, negative = less light; active = well fitted falling curve with a large enough effect; inconclusive = small, poorly fitted or top-dose-only effect; inactive = no such curve, though single readings can be large or run the other way; further: nearly all actives have a fitted effect of over 60% in size; overnight with compound
Numbers without * were called inactive; ? = inconclusive; [ ] = dose if it differs, or a comment. On the % scale 0 is the no-effect control and ±100 the full control effect; potency means the concentration at half of the fitted maximal effect.

SMILES	2A Renilla	StopGo FLuc
O=C(CCCn1c(=O)c2cccn2c2ccccc21)N1CCN(c2cccc(Cl)c2)CC1	-20%	-27%
Cc1ccc(S(=O)(=O)n2nc(-c3ccccc3)nc2NCc2ccccc2Cl)cc1	242%[activator]	-8%
COc1ccc(NC(=O)Cn2nnc(-c3nc(-c4ccncc4)no3)c2N)cc1OC	1%	30%
CC1(C)CC(=O)C2=C(C1)Nc1ncnn1C2c1cccs1 (stereo not given)	-10%	-16%
COc1ccc(OC)c(C2CCCN2Cc2nc(-c3cccc(C(F)(F)F)c3)no2)c1 (stereo not given)	-12%	-10%
CCOc1ccc(C2CC(=O)Nc3cc4c(cc32)OCO4)cc1OC (stereo not given)	10%	26%
COCc1cccc(C(=O)Nc2cccc(Oc3ccccc3)c2)c1	19%	55%[activator]
Cc1cccc(C)c1NC(=O)Cn1nnc(C(=O)NCc2ccc(F)cc2)c1N	-6%	-13%
COc1cccc(NC(=O)Nc2cc(-c3cn4cccnc4n3)ccc2OC)c1	92%[activator]	425%[activator]
Cn1nc(C(=O)Nc2nc(-c3ccc4c(c3)OCCO4)cs2)c2ccccc2c1=O	-1%	88%[activator]
COc1cc2nc(N3CCN(C(=O)C4CCCO4)CC3)nc(N)c2cc1OC (stereo not given)	-13%	1%[11.5 µM]
CN1C(=O)C2(c3ccccc31)N(c1cccc(F)c1)C(=O)CS2(=O)=O (stereo not given)	12%	16%
Cc1ccc(C)c(N2CCN(C(=O)c3ccc(NC(=O)c4nsc5ccccc45)cc3)CC2)c1	1%	75%[activator]
Cc1ccc(CNC(=O)c2nn(-c3ccc(Cl)cc3)nc2CO)cc1	-11%	-14%
CCS(=O)(=O)N(Cc1ccc(Cl)c(Cl)c1)c1c(C)n(C)n(-c2ccccc2)c1=O	6%	-22%
COc1ccc(-c2cnc(C)o2)cc1S(=O)(=O)Nc1ccc(F)cc1F	2%	0%
COc1ccc(NC(=O)CN2C(=O)COc3ccc(S(=O)(=O)N4CCOCC4)cc32)cc1	-6%	-5%
COc1ccc(-c2nc(CSCC(=O)NCc3ccc4c(c3)OCO4)c(C)o2)cc1OC	8%	19%
Cc1cc(Br)ccc1NC(=O)C1CCCN(S(=O)(=O)c2cccc3nonc23)C1 (stereo not given)	-14%	?
CCc1ccccc1NC(=O)c1n[nH]c(=O)c2ccccc12	13%	0%
COC(=O)c1ccc(OCC2c3cc(OC)c(OC)cc3CCN2C(=O)c2ccc(F)cc2)cc1 (stereo not given)	?	?
O=S(=O)(Cc1ccc2c(c1)OCO2)c1ccc2ccccc2c1	55%[activator]	14%
O=C(Nc1ccc(F)cc1Cl)c1nc2ccccc2nc1N1CCCCC1	-6%	-3%
CSCC[C@H](NC(=O)CSc1cc(Cl)ccc1Cl)c1nc2ccccc2[nH]1	10%	0%
CC1CCC(C)[S+]1c1cc(O)ccc1O (stereo not given)	?	?
C[C@]12CCC(=O)C=C1CC[C@@H]1[C@@H]2CC[C@@]2(C)[C@H]1CC[C@]2(C)O	1%	-5%[11.5 µM]
C=CCNC(=S)N(CC)CC	4%	0%
O=C(Cn1cc(SCc2ccccc2)c2ccccc21)N1CCCCC1	0%	113%[activator]
Cc1c(C(=O)OC2CCCCCC2)[nH]c2c1C(=O)CC(c1ccc(Cl)cc1)C2 (stereo not given)	-8%	-13%
Cc1cc2c(cc1S(=O)(=O)N(C)CC(=O)N1CCCCC1)OC(C)C(=O)N2 (stereo not given)	18%	6%
COc1ccc2c(ccn2CC(=O)NCc2ccccc2OC)c1	3%	17%
COc1cccc(CNC(=O)C2CCN(Cc3cc4ccccc4n3Cc3ccc(C)cc3)CC2)c1	-14%	-8%
CC1CCCN(C(=O)c2ccc(S(=O)(=O)Nc3ccccc3Cl)cc2)C1 (stereo not given)	1%	5%
CN(C(=O)NCc1noc2ccccc12)c1cccc(Cl)c1	-9%	-9%
Cc1cc(C)c2c(CC(=O)N(Cc3ccc(N(C)C)cc3)Cc3ccco3)coc2c1	15%	-18%
Fc1cccc(Cl)c1CNc1ccc(Cl)cc1	23%	103%[activator]
O=C(Cc1ccccc1)Nc1ccc(O)c(-c2nc3ccccc3o2)c1	-7%	2%
N#CCC(=O)Nc1ccccc1Oc1ccccc1	6%	15%
COc1cccc(-n2c(=O)c3c4c(sc3n(Cc3ccc(C)cc3)c2=O)CCCC4)c1	3%	11%
O=C1CCc2cc(S(=O)(=O)NCc3ccccc3)cc3c2N1CC3	-7%	-6%
Cc1ccc(NC(=O)Cn2c(=O)n(CCCCC(=O)NCCc3ccccc3)c(=O)c3ccccc32)c(C)c1	-12%	-17%
O=S(=O)(Nc1nc2c(s1)CCCC2)c1ccc(Br)cc1	?	38%
CNC(=O)CN(C)C(=O)CNC(=O)NC1CCCCC1	4%	-4%
Cc1ccc(S(=O)(=O)N(C)C)cc1NC(=O)COC(=O)C1=COCCO1	10%	18%
COc1cccc(CNC(=O)Cn2c(=O)cc(C(F)(F)F)c3c(C)nn(C)c32)c1OC	-8%	-14%
COc1ccc(-c2nn3c(-c4ccccc4)nnc3c3ccccc23)cc1	1%	11%
Cc1c(C)n(-c2cccc(F)c2)c2ncnc(Cl)c12	9%	8%
CCOCCOc1nc2c(c(=O)n(C)c(=O)n2C)n1Cc1cccc2ccccc12	?	?
O=C(Nc1ccc(N2CCCCC2)c2ccncc12)C1CCN(C(=O)C2CC2)CC1	-12%	-13%
N#C/C(=C\c1ccc(-c2ccc(Br)cc2)o1)c1nc2ccccc2[nH]1	-7%	18%

(further entries)
SMILES	2A Renilla	StopGo FLuc
Cc1ccccc1Cn1c(=O)n(CCc2ccccc2)c(=O)c2ccccc21	-14%	-3%
CCNC(=O)CN(CC)Cc1nc2ccsc2c(=O)[nH]1	-5%	-1%
O=C(c1ccc(F)cc1)[C@@H]1[C@H]2C(=O)[C@@H]3OC[C@@H](O3)[C@@H]12	7%	22%
Cc1c(Cl)cccc1NC(=O)Cn1c(=O)n(Cc2ccco2)c(=O)c2sc3ccccc3c21	-4%	-21%
Cc1ccc(-c2ccc(/C=N/Nc3ccc(S(N)(=O)=O)cc3)o2)c([N+](=O)[O-])c1	3%	0%
CCc1ccc(NC(=O)CSc2nc3c([nH]c4ccccc43)c(=O)n2-c2cccc(OC)c2)cc1	-16%	-13%
Fc1ccc(N=Cc2ccc3ncccc3c2)c(Cl)c1	2%	14%
C=C(C)COc1ccc2c(=O)c(-c3ccc(Cl)cc3)coc2c1	-4%	187%[activator]
COc1ccc(NC(=O)c2ccco2)cc1NC(=O)COc1ccc(C)c(C)c1	-17%	27%
COc1cccc(NC(=O)N2CCC(N(C)C(C)C)CC2)c1	3%	6%
CC(=O)c1cnc(Nc2nc(C)c3cc(C)ccc3n2)nc1C	5%	12%
Cc1cc(C(=O)CSc2nc3cc(S(N)(=O)=O)ccc3n2C)c(C)n1C1CC1	7%	28%
CC(=O)c1c(C)[nH]c(C(=O)Cn2nnc(-c3ccc(C(C)C)cc3)n2)c1C	-10%	-9%
O=C(NC1CC1)c1ccc(NS(=O)(=O)c2ccccc2C(F)(F)F)cc1	17%	2%
Cc1ccc(OC(=O)/C=C/c2cccs2)cc1	-1%	17%
Cc1cccc(N2CCN(C(=O)c3ccc4c(Cl)c5c(nc4c3)CCCC5)CC2)c1C	-11%	-10%
CC1=C(C(=O)N2CCOCC2)C(c2cc(Br)ccc2F)C2=C(CC(C)(C)CC2=O)N1 (stereo not given)	14%	4%
CCC(C)NC(=O)c1ccccc1NS(=O)(=O)c1cccc(C(=O)O)c1 (stereo not given)	-1%	2%
CC(C)c1ccc(OCc2nn3c(=O)c4ccccc4nc3s2)cc1	4%	77%[activator]
O=C(CC(Nc1ccc(Br)cc1)C(=O)O)c1ccccc1 (stereo not given)	25%	170%[activator]
O=C(c1cc2cc(Cl)ccc2[nH]1)N1CCCCC1	62%[activator]	156%[activator]
CC(C)=C(/C(=C/CS(=O)(=O)c1ccc(C)cc1)S(=O)(=O)c1ccc(Br)cc1)S(=O)(=O)c1ccc(Br)cc1	5%	-2%
CC(C)C[C@H]1COc2ccc(Cl)cc2S(=O)(=O)N1Cc1cn(Cc2ccc(C(F)(F)F)cc2)nn1	5%	4%
CC(C)(C)c1ccc(C(=O)NCCc2csc(-c3ccc(Cl)cc3)n2)cc1	14%	1%
CCOC(=O)CNc1nc2ccccc2n2c(C)nnc12	6%	7%

Next section:
Compound	2A Renilla	StopGo FLuc
COc1ccc(S(=O)(=O)N(CC(=O)NC(C(C)C)C(C)C)c2ccc(F)cc2)cc1OC	0%	-2%
Cc1ccc2c(c1)cc(C(=O)NCCOc1ccc(Cl)cc1)n2C	15%	25%
COCCOc1ccc(S(=O)(=O)N(C)C(C)(C)C(=O)OC)cc1	7%	8%
CC(NC(=O)Cc1cccc2cccnc12)c1ccccc1 (stereo not given)	8%	-3%
COc1cccc(N2CC(C(=O)NCCNC(=O)c3cn(C)c4ccccc34)CC2=O)c1 (stereo not given)	9%	17%
Cc1ccc(C2C3=C(CC(C)(C)CC3=O)NC3=C2C(=O)c2ccccc23)cc1 (stereo not given)	29%	-14%
CC(NC(=O)c1ccc(Cl)c(S(=O)(=O)N2CCCC2)c1)c1cc2ccccc2o1 (stereo not given)	103%[activator]	-6%
CCCn1nc(C(=O)Nc2ccc(S(=O)(=O)NC)cc2)c2ccccc2c1=O	86%[activator]	23%
CC(C(=O)NCc1ccc(Cl)cc1)n1ccc2cc(S(=O)(=O)N3CCCCCC3)ccc21 (stereo not given)	31%[activator]	-8%
CCOC(=O)c1cc(-c2ccc(F)cc2)n(CCC(=O)Nc2ccccc2OC)c1C	-17%	-25%
O=c1[nH]c(SCc2ccccc2)nc2nc[nH]c12	-1%	11%
COc1cc(NC(=O)Cn2c(=O)n(CC3CCC(C(=O)NCCc4ccccc4)CC3)c(=O)c3ccccc32)cc(OC)c1 (stereo not given)	13%	50%[activator]
CC(C)Sc1ncc(Cl)c(C(=O)Nc2ccc(S(=O)(=O)Nc3ncccn3)cc2)n1	-13%	-16%
O=C(O)c1ccc(CNC2C3CC4CC(C3)CC2C4)cc1 (stereo not given)	7%	-1%
Cc1c(-c2cccc(Cl)c2)nc2ccccc2c1C(=O)NC1CCCC1	19%	-5%
CCOC(=O)c1cnn(-c2cc(C)nc3c(-c4ccc(Cl)cc4Cl)c(C)nn23)c1N	-1%	11%
CN(Cc1ccsc1)C(=O)C1CC=CCC1c1nc2ccccc2s1 (stereo not given)	32%[activator]	1%
CCS(=O)(=O)CCSc1nc(-c2ccc(Br)cc2)cc(-c2ccccc2)c1C#N	-7%	-14%
COc1ccc(-c2nn(-c3ccccc3)cc2C2CC(c3cccs3)=NN2S(C)(=O)=O)cc1 (stereo not given)	36%[activator]	16%
CC1CCc2c(c(-c3ccc(O)cc3)nc3ccc4ccccc4c23)C1 (stereo not given)	7%	10%
CCC(Sc1nc2ccccc2c2nc(CCc3c(C)n[nH]c3C)nn12)C(=O)Nc1ccccc1F (stereo not given)	-3%	-8%
COc1ccccc1NC(=O)Cn1c(=O)n(CCc2ccccc2)c(=O)c2sc3ccccc3c21	16%	64%[activator]
COCCN(CCOC)C(=O)c1cc(-c2ccco2)nc2ccccc12	-1%	-3%
CCOC(=O)c1nc2ccccc2nc1NCCc1ccccc1	3%	-5%
CCOc1ccc(C(=O)Nc2cc(NC(=O)c3ccco3)ccc2OC)cc1Br	-4%	5%
COc1ccc(CCNC(=O)c2nn(Cc3ccccc3)c(=O)c3ccccc23)cc1	72%[activator]	0%
CC(Oc1ccc(F)cc1)C(=O)NC1(C#N)CCCCC1 (stereo not given)	4%	54%[activator]
Cn1cnc2c1c(=O)n(CC(=O)Nc1ccc3c(c1)OCO3)c(=O)n2C	-7%	95%[activator]
CC1CCN(C(=O)Cn2nnnc2-c2ccc(Cl)cc2)CC1	-5%	48%[activator]
Cc1cc(NS(=O)(=O)c2ccc3nc(-c4ccccc4)[nH]c3c2)ccc1Br	0%	?
COC(=O)c1cc2sc(C)cc2n1Cc1ccc(F)cc1Cl	-8%	19%
CCCCNC(=O)c1cccc2cccnc12	3%	28%
O=S(=O)(Nc1ccc(-c2nnc3n2CCCCC3)cc1)c1ccc2c(c1)OCCCO2	116%[activator]	7%
CCCOc1cccc(C(=O)Nc2ccc(-c3nc4ccccc4s3)c(Cl)c2)c1	-9%	12%
Cc1ccc(C)c(CN2C(=O)CSc3ccc(C(=O)NCc4ccc(F)cc4)cc32)c1	-7%	-14%
